2A StopGo: lowers the luciferase signal of an FMDV 2A StopGo reporter | human cells with a luciferase reporter of 2A StopGo recoding; control for the full effect not named in the record | Potency, µM (top dose mostly 57.9 µM), without a hit: at the top dose signal change, negative = less light | 410,000 tested, 1.2% active | AID 1159524; active = well fitted falling curve with a large enough effect; inconclusive = small, poorly fitted or top-dose-only effect; inactive = no such curve, though single readings can be large or run the other way; tested in HEK293T cells; also: % is scaled to controls: 0 for no effect and ±100 for the full control effect; nearly all actives have a fitted effect of over 45% in size; luciferase light after 4 h
Cruzain inh Det: cruzain (T. cruzi) inhibition with detergent; 200,000 tested, 0.43% active; P25779; AID 1478; Potency, µM, without a hit: max response, negative = inhibition, most hits filed as inhibitors; purified cruzain, Z-FR-AMC fluorescence, 0.01% Triton;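 also: plate controls were neutral wells for no effect and buffer without enzyme for full effect; nearly all actives have a fitted effect of over 40% in size; top concentration of the series not given in the record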
Target sequence (P25779 123-467 limits assumed): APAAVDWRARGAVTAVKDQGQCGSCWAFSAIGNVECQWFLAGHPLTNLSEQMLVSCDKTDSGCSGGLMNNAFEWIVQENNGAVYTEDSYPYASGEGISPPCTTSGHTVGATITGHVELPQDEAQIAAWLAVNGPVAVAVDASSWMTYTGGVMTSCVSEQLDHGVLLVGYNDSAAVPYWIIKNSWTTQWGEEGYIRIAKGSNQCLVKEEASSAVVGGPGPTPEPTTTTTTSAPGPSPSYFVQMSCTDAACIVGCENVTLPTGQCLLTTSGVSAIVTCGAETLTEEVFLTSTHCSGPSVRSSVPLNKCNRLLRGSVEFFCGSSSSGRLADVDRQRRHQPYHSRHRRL
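Cruzain (1.5 nM) preincubated 15 min at RT with compound in 100 mM sodium acetate pH 5.5, 5 mM DTT, 0.01% Triton X-100. Reaction started with 2 uM Z-FR-AMC; AMC fluorescence (ex 360/em 450 nm) change over 60 s gave rate.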
RE007 growth inh: less growth of the S. pombe RE007 Vpr strain; S. pombe RE007 Vpr strain, BacTiter-Glo ATP luminescence, 24 h; control for the full effect not named in the record; AID 651644; Potency, µM (doses to about 92.2 µM), without a hit: top-dose activity change, negative = less growth; 360,000 tested, 0.21% active; active = well fitted falling curve with a large enough effect; inconclusive = small, poorly fitted or top-dose-only effect; inactive = no such curve, though single readings can be large or run the other way;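 also: % is scaled to controls: 0 for no effect and ±100 for the full control effect; nearly all actives have a fitted effect of over 50% in size; the assay follows cell death caused by Vpr and the record does not say whether a fall means rescue or toxicity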
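Fission yeast RE007 carrying one integrated HIV-1 vpr copy, seeded at OD 0.01 in PMG+AL medium with 23 nL pinned compound. Grown 24 h at 30 degrees; viability read by BacTiter-Glo luminescence after 5 min.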
LASV entry inh: Lassa virus entry inhibition. Lassa virus pseudotype entry inhibition, cell reporter; control for the full effect not named in the record. Potency, µM (doses to about 37.9 µM), for the others: at the top dose activity change, negative = inhibition, actives largely listed as inhibitors. 300,000 tested, 1.2% active. AID 540256; active means well fitted inhibition curve with a large enough effect; inconclusive means small, poorly fitted or top-dose-only effect, or effect the other way; inactive means flat fitted curve, though single readings scatter; tested in HEK293 cells; also: % is scaled to controls: 0 for no effect and ±100 for the full control effect; nearly all actives have a fitted effect of over 50% in size; luciferase read-out
MARV entry inh: blocks Marburg virus binding to or entry into cells; Marburg virus pseudotyped entry inhibition, cell reporter; control for the full effect not named in the record; about a third of the inactives were read at about 46 µM; Potency, µM (top dose mostly 37.8 µM), for inactives: top-dose activity change, negative = inhibition, actives largely listed as inhibitors; 300,000 tested, 1.8% active; AID 540276; active = well fitted inhibition curve with a large enough effect; inconclusive = small, poorly fitted or top-dose-only effect, or effect the other way; inactive = flat fitted curve, though single readings scatter; tested in HEK293 cells; about a fifth of its hits are not listed in these tables; also: % is scaled to controls: 0 for no effect and ±100 for the full control effect; luciferase read-out
NS1 function inh: influenza NS1 inhibition; Potency, µM (series often up to 46.1 µM), for inactives: top-dose activity, positive = more growth; 270,000 tested, 0.4% active; S. cerevisiae slowed by influenza A NS1, growth recovery by OD600; active means well fitted rising curve with a large enough effect; inconclusive means small, poorly fitted or top-dose-only effect; inactive means no such curve, though single readings can be large or run the other way; also: nearly all actives have a fitted effect of over 50% in size
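In this qHTS, NS1 from influenza A is expressed in budding yeast, where it slows growth. Cells are switched from glucose to 2% galactose medium (pH 6.0, -URA), treated with compound, and growth recovery is read at OD600.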
SARS PLP yeast: inhibitors of SARS-CoV papain-like protease in yeast | S. cerevisiae expressing SARS-CoV PLpro, growth rescue; control for the full effect not named in the record | Potency, µM (doses to about 32.9 µM), for inactives: at the highest dose activity, positive = growth rescue | 330,000 tested, 0.19% active; active means well fitted rising curve with a large enough effect; inconclusive means small, poorly fitted or top-dose-only effect; inactive means no such curve, though single readings can be large or run the other way; also: 0% is about no effect; nearly all actives have a fitted effect of over 55% in size; growth read by luminescence after 48 h
Cruzain noTriton: inhibitors of Trypanosoma cruzi cruzain without detergent; purified cruzain, Z-FR-AMC fluorescence, no detergent; Potency, µM, without a hit: max response, negative = inhibition, usual class: inhibitors; 200,000 tested, 2.3% active; AID 1476;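 also: plate controls were enzyme without inhibitor for no effect and buffer without enzyme for full effect; nearly all actives have a fitted effect of over 40% in size; top concentration of the series not given in the record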
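Detergent-free condition (0.00005% Triton X-100) in acetate buffer pH 5.5 with DTT. 1.5 nM enzyme and compound were pre-mixed 15 min, then 2 uM Z-FR-AMC substrate added; reaction progress from fluorescence change between first and third reads (60 s).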
Active calls of the source: *; ? = inconclusive; . = not tested or not shown; & = joins results of further samples; [ ] = dose if it differs, or a comment. Unless noted, calls follow the shape of the dose curve; as a rule, active = well fitted curve in the direction sought with a large enough effect; inconclusive = small, poorly fitted or top-dose-only effect, or another doubt; inactive = no such curve, though single readings can be large; an effect the other way counts as inactive or inconclusive. Potency is read from the fitted curve at half-maximal effect.

SMILES	2A StopGo	Cruzain inh Det	RE007 growth inh	LASV entry inh	MARV entry inh	NS1 function inh	SARS PLP yeast	Cruzain noTriton
Cn1c(=O)c2c(nc(NCc3ccccc3)n2Cc2ccc(F)cc2)n(C)c1=O	.	-2.9%	.	.	.	-74%	-1%	-12%
COc1ccc([N+](=O)[O-])cc1NC(=O)CCCOc1ccccc1	-20%	-9.0%	26%	0%	-30%	6%	-10%	-1%
CSc1ccc(C#N)cc1NC(=O)c1ccc(Cl)nc1	-17%	.	1%	4%	14%[46.1 µM]	18%	0%	.
CC1CCc2c(sc(NC(=O)c3cc(-c4ccc(F)cc4)on3)c2C(N)=O)C1 (configuration not stated)	2%	-2.4%	.	-8%[46.1 µM]	1%[46.1 µM]	.	.	0%
COc1cccc(-n2c(SCC(N)=O)nc3c(oc4ccccc43)c2=O)c1	-2%	-1.6%	.	.	-24%[46.1 µM]	.	.	5%
CC(C)NCCCOc1ccc(C(C)(C)c2ccccc2)cc1	-7%	3.8%	18%	2%	?	-7%	-5%	8%
COCCn1nnnc1C(c1ccc(C(F)(F)F)cc1)N1CCOCC1 (configuration not stated)	-8%	6.3%	12%	?	0%	3%	-6%	12%
O=C(O)CCC1(c2ccccc2)NC(=O)NC1=O (configuration not stated)	16%	.	6%	-17%	2%	5%	1%	.
Cc1c(Cl)c([N+](=O)[O-])nn1CCCC(=O)Nc1cc(Oc2ccccc2)cc([N+](=O)[O-])c1	-11%	-4.8%	0%	15%	2%	-2%	7%	?
COc1ccc2c(c1)NC(c1ccc(Cl)cc1)=NC(c1cccs1)=N2	-7%	-5.2%	.	7%[46.1 µM]	5%[46.1 µM]	.	.	?
CSc1ccc(-c2nc3ncccn3c2Nc2ccc(C)c(C)c2)cc1	-4%	-6.3%	.	-5%[46.1 µM]	?	.	.	2%
CC1CCCCN1c1ncnc2ccccc12 (configuration not stated)	.	-1.9%	-4%	?	?	-6%	-3%	-6%
O=C(NCc1nc2ccccc2[nH]1)C1=C[C@@H](C2CCCCC2)C[C@@H](OCCCCO)O1	-15%	.	0%	.	.	6%	-3%	.
NC(=O)CC(NC(=O)Cc1ccc(Br)cc1)c1ccc(N2CCC(N3CCCC3)CC2)c([N+](=O)[O-])c1 (configuration not stated)	-2%	.	-13%	.	.	9%	0%	.
COC(=O)N/N=C/c1cc(C)n(-c2ccccc2)c1C	55%[activator]	-1.6%	8%	2%	-1%	-3%	5%	4%

Looked up one by one from the list above (4):
SMILES	2A StopGo	Cruzain inh Det	RE007 growth inh	LASV entry inh	MARV entry inh	NS1 function inh	SARS PLP yeast	Cruzain noTriton
COCCn1nnnc1C(c1ccc(C(F)(F)F)cc1)N1CCOCC1 (configuration not stated)	-8%	6.3%	12%	?	0%	3%	-6%	12%
CC1CCCCN1c1ncnc2ccccc12 (configuration not stated)	.	-1.9%	-4%	?	?	-6%	-3%	-6%
COc1ccc2c(c1)NC(c1ccc(Cl)cc1)=NC(c1cccs1)=N2	-7%	-5.2%	.	7%[46.1 µM]	5%[46.1 µM]	.	.	?
O=C(NCc1nc2ccccc2[nH]1)C1=C[C@@H](C2CCCCC2)C[C@@H](OCCCCO)O1	-15%	.	0%	.	.	6%	-3%	.

Further compounds follow.
SMILES	2A StopGo	Cruzain inh Det	RE007 growth inh	LASV entry inh	MARV entry inh	NS1 function inh	SARS PLP yeast	Cruzain noTriton
Nc1cc(N2CCCCC2)c(Cl)cc1[N+](=O)[O-]	-25%	-10%	11%	27%	1%	-24%	-22%	17%
COc1ccc(C(=O)c2oc3ccccc3c2N)cc1	88%[activator]	-10%	-11%	1%	-2%	-54%	-11%	-1%
O=C(Nc1ccc(C(=O)NCCCN2CCCCC2)cc1)C1=CSCCO1	10%	.	-17%	.	.	-5%	0%	.
COc1ccccc1NC(=O)CCC(=O)N/N=C(/C)c1ccc(C)cc1	3%	1.8%	3%	15%	?	22%	3%	11%
CCCC(c1nnnn1Cc1ccc(OC)cc1)N1CCN(C(=O)c2ccco2)CC1 (configuration not stated)	12%	.	-4%	-23%[46.1 µM]	-14%[46.1 µM]	5%	1%	.
Cn1c(=O)c(C(=O)NCc2ccc(F)cc2)c(O)c2ccccc21	-4%	.	-11%	.	.	1%	-3%	.
N#C/C(=C\c1ccccc1)c1ccccn1	53%[activator]	.	-24%	.	.	-32%	-6%	.
S=C1NC2=C(CCCC2=C2SCCCS2)C(c2ccccc2)N1 (configuration not stated)	20%	.	-4%	-13%	-23%[46.1 µM]	.	7%	.
Nc1nnc(CCN2C(=O)CSC2=O)s1	15%	2.1%	-5%	?	?	1%	2%	-14%
N#Cc1c(-c2cccs2)cc(C2CC2)nc1SCC(N)=O	-7%	8.2%	2%	-12%	4%[46.1 µM]	4%	1%	?
Cc1nc(Nc2ccncc2)c2oc3ccccc3c2n1	?	-5.3%	-6%	28%	?	-2%	1%	1%
COc1ccccc1CCn1cc(C#N)c(=O)[nH]c1=O	-24%	.	-12%	.	.	-2%	-2%	.
O=C(c1ccc(S(=O)(=O)N2CCOCC2)cc1)N(c1ccccn1)C1CCCCC1	0%	.	4%	?	?	-1%	1%	.
COc1ccc(/C=N/N2CCN(c3ccncc3S(=O)(=O)N3CCCCC3)CC2)cc1	-13%	-3.8%	0%	-1%	2%	12%	-3%	?
O=C(CCNC(=O)Cn1ccc2ccccc2c1=O)NCCN1CCN(c2ccccc2F)CC1	-11%	.	5%	16%	0%&0%	5%	.	.
CCOc1ccc(S(=O)(=O)N2CCCCC2)cc1NC(=O)CCc1ccc(OC)cc1	5%	.	5%	?	-11%	.	3%	.
O=C(c1ccc(S(=O)(=O)Nc2ccccc2)cc1)N1CCCCCCC1	-24%	.	5%	?	?	4%	-1%	.
Cc1cc(C)cc(N(CC(=O)NC2CCCCC2)C(=O)CCC(=O)Nc2cc(C)ccn2)c1	-14%	-0.3%	-5%	3%	6%	-32%	6%	20%
O=C(Nc1c(C(=O)N2CCOCC2)cnn1-c1ccccc1)c1ccco1	-11%	3.9%	6%	-19%[14.3 µM]	14%	1%	0%	2%
COc1ccc(-c2csc(NC(=O)c3ccco3)n2)cc1	30%	-11%	?	?	5%	-47%	-72%	-28%
CN1C(=O)C2(c3ccccc31)N(c1ccc(F)c(Cl)c1)C(=O)CS2(=O)=O (configuration not stated)	-25%	-0.7%	.	4%[46.1 µM]	.	.	.	?
O=C(COC(=O)c1ccccc1C(=O)c1ccccc1)NCc1ccc(F)cc1	-12%	.	3%	-1%	21%	.	-2%	.
Cc1c(Nc2cc(N3CCCCCC3)c3nonc3c2[N+](=O)[O-])c(=O)n(-c2ccccc2)n1C	-15%	-9.9%	-4%	-25%	2%	-2%	5%	-20%
COc1ccc(Cl)cc1NC(=O)CN(C)CC(=O)Nc1cc(OC)c(OC)c(OC)c1	0%	.	20%	.	.	-3%	-1%	.
Cc1ccc(S(=O)(=O)NN2C(=O)/C(=C/c3ccccn3)SC2=S)cc1	-20%	-9.5%	4%	0%	?	15%	-10%	2%
O=C(NCc1cccs1)c1cccnc1C(=O)O	-1%	0.2%	-6%	-14%	7%	4%	-2%	0%
CC(=O)c1ccc(OCC(C)C)c(Cc2c(O)nc(N)[nH]c2=O)c1	-4%	-2.5%	2%	2%	?	9%	11%	-2%
CCCC[n+]1ccc(-c2nc3ccc([N+](=O)[O-])cc3[nH]2)cc1	1%	-15%	?	4%	1%	25%	27%	-4%
CCOc1ccc(CCNC(=O)Cc2ccc(NC3=NC4CS(=O)(=O)CC4S3)cc2)cc1 (configuration not stated)	3%	.	-2%	.	.	20%	1%	.
CSc1nc(N)nc(N(C)C)n1	0%	.	-2%	.	.	4%	0%	.
COc1ccc(S(=O)(=O)N2CCC(C(=O)N3CCCC3)CC2)cc1C	-23%	.	1%	-19%	2%[46.1 µM]	20%	-3%	.
O=C(N/N=C/c1ccc(O)cc1O)c1ccc(CN2C(=O)c3cccc4cccc2c34)cc1	-19%	.	-8%	5.2µM*	3.2µM*	3%	6%	.
O=C(O)c1ccc(-n2nncc2-c2ccccc2)cc1	14%	.	-16%	-2%[46.1 µM]	7%[46.1 µM]	-7%	8%	.
Cc1ccc(S(=O)(=O)C(CNC(=O)c2c(F)cccc2F)c2ccco2)cc1 (configuration not stated)	27%	-3.4%	.	26%[46.1 µM]	.	.	.	-12%
Cc1ccc2nc(N3CCN(C(=O)c4ccc(F)cc4)CC3)c(C#N)cc2c1	?	.	19%	.	.	-5%	-17%	.
CCOc1ccc(Nc2cc(C)c3ccccc3n2)cc1	33%[activator]	.	-28%	.	.	-40%	-2%	.
NC(=O)CN1C(=O)C2CCCCN2C(=O)c2ccccc21 (configuration not stated)	-15%	2.6%	18%	0%	0%	3%	-2%	-7%
CCOc1cccc2cc(C(N)=O)c(=NCc3ccccc3)oc12	-10%	-0.5%	0%	-2%	16%	-8%	3%	-8%
CC(=O)NC(Cc1cc(C)ccc1C)C(=O)N1CCN(C(=O)c2ccc([N+](=O)[O-])cc2)CC1 (configuration not stated)	3%	.	40%	-2%[46.1 µM]	-2%[46.1 µM]	13%	-3%	.
CCCCNC(=S)Nc1cc(S(=O)(=O)N2CCCCC2)ccc1C	-9%	.	-2%	?	?	3%	-1%	.
Clc1cccc(Cl)c1/C=N\Nc1nccs1	.	-2.3%	-17%	?	-5%	9%	-12%	?
Cn1c(/C=C/c2ccc(Br)cc2)nc2ccccc2c1=O	55%[activator]	.	1%	.	.	-4%	-2%	.
CCN(CC)CCCOC(=O)C(OC(C)C)(c1ccccc1)c1ccccc1	?	0.6%	11%	16µM*	12µM*	-4%	3%	19%
Cc1ccc(C(=O)NCc2ccc(Cl)cc2)o1	16%	-1.1%	-14%	8%	1%	-47%	-5%	-18%
CCC(=S)/C=C1\Sc2ccc3ccccc3c2N1CCCS(=O)(=O)O	.	-4.2%	.	.	0%	7%	5%	?

High-throughput results: PubChem BioAssay, National Center for Advancing Translational Sciences (NCATS)
